Bioassay records deposited in PubChem by National Center for Advancing Translational Sciences (NCATS).
VDR inhibitor = inhibitors of human vitamin D receptor | 0.93% of 400,000 active | P11473 | AID 504847 | VDR-SRC2-3 peptide fluorescence polarization, 2 h | Potency, µM, for inactives: max response, negative = inhibition, most hits filed as inhibitors; active = well fitted inhibition curve with a large enough effect; inconclusive = small, poorly fitted or top-dose-only effect, or another doubt; inactive = no such curve, though single readings can be large or run the other way; note: series mostly up to about 120 µM
Target sequence (P11473 whole entry, looked up): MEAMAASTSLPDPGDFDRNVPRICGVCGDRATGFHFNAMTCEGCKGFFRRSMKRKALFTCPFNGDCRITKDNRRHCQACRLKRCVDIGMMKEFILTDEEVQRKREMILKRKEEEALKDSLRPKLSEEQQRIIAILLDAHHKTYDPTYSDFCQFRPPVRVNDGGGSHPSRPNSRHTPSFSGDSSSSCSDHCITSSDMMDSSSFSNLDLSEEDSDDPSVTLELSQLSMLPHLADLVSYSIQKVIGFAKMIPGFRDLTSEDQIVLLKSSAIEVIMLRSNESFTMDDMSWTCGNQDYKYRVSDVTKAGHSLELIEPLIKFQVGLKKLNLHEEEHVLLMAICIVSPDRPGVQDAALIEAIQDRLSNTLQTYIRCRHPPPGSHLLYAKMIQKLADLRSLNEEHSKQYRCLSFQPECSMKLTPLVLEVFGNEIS
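After 23 nl compound addition and a short centrifugation, plates sat for 2 hours at ambient temperature; polarization of fluorescence then indicated loss of VDR binding to peptide SRC2-3.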
* = called active by the depositor; ? = inconclusive; & = joins results of further samples; [ ] = remark or other dose. % is set by controls: 0 for no effect and ±100 for the full control effect; potency is the fitted concentration of half-maximal effect. This is a subset. The share of hits here may be higher or lower than overall.

SMILES | VDR inhibitor
CCc1ccc(C(=O)NC(C(=O)NCC2CCCO2)C(C)C)cc1 (centres undefined) | 12%
CCN(CC)S(=O)(=O)c1ccc(C(=O)NCC2CCCCC2)cc1 | -8%
Cc1c(NC(=O)CN(c2ccc(F)cc2)S(=O)(=O)c2ccccc2)c(=O)n(-c2ccccc2)n1C | 0%
CCOc1ccc(CCNc2nc3ccccc3n3cnnc23)cc1OCC | 2%
COc1cc(S(=O)(=O)Nc2ccccc2)ccc1NC=O | 16%
CNc1oc(-c2cccs2)nc1C#N | -8%
CN(C)C(=O)c1coc2nc3ccccc3nc12 | -24%
C=CCSc1nc2c(c(=O)[nH]c(=O)n2C)n1Cc1ccccc1 | -9%
Cc1cc(C(=O)N/N=C/c2sc(N3CCOCC3)nc2-c2ccccc2)c(C)o1 | 8%
CC(CN1CCOCC1)OC(=O)Cc1ccc(Cl)cc1 (centres undefined) | -19%
Cc1ccc(-c2csc3n[nH]c(=S)n23)cc1 | -33%&-29%
C=C1c2ccccc2NC(=O)N1c1ccc(C)cc1 | -10%
CCN(CC(=O)NCc1ccc(F)cc1)CC(=O)Nc1cc(S(=O)(=O)N(C)C)ccc1C | -16%
CC(=O)c1c[nH]c(C(=O)Nc2ccc(N3CCCCCC3)cc2)c1 | 5%
O=C(O)CCC(=O)Nc1cccc(-c2csc(-c3ccccc3)n2)c1 | 12%

Exported in CSV form: part of the list above.
molecule,VDR inhibitor
CC(=O)c1c[nH]c(C(=O)Nc2ccc(N3CCCCCC3)cc2)c1,5%
O=C(O)CCC(=O)Nc1cccc(-c2csc(-c3ccccc3)n2)c1,12%

The list continues.
SMILES | VDR inhibitor
CC(C)CCn1nc(C(=O)OC(C)C(=O)NC(N)=O)c2ccccc2c1=O (centres undefined) | -10%
CS(=O)(=O)c1ccc2nc(NC(=O)C3CC(=O)N(c4ccc(F)cc4)C3)sc2c1 (centres undefined) | -2%
CCOC(=O)c1sc2nc(CC(=O)OC)nc(NCc3ccc(Cl)cc3)c2c1C | 1%
O=C(COC(=O)CCNS(=O)(=O)c1ccc(Cl)cc1)Nc1ccccc1OC(F)F | -21%
CC(C)c1c(C(=O)N/N=C/c2ccc(-c3ccccc3)cc2)nnn1-c1nonc1N | -15%
COc1ccc(N2CCN(CCNC(=O)c3ccc4c(c3)[nH]c(=S)n3c5ccccc5nc43)CC2)cc1 | -23%
COc1ccc(OC)c(NC(=O)COC(=O)C2CCC2)c1 | -9%
OCc1ccnc2oc3ccccc3c12 | 4%
Cn1ccs/c1=N\S(=O)(=O)c1ccc(F)cc1 | 0%
O=C(CN1C(=O)c2cccnc2Oc2ccc(Cl)cc21)N1CCCC1 | 5%
CCc1cc2c(SCC(=O)N3CCCC3=O)ncnc2s1 | -17%
COc1ccc2oc(=O)c(C(=O)N3CCN(C(=O)c4ccccc4)CC3)cc2c1 | 4%
CCOC(=O)c1c(NC(=O)COc2c(C)cc(Cl)cc2Cl)sc2c1CCCC2 | -8%
COc1ccc(CCNC(=O)C2CCC(=O)N(CC3CCCCC3)C2)cc1 (centres undefined) | -7%
O=C(Cn1cnnn1)Nc1cccc([N+](=O)[O-])c1 | -12%

Six records picked at random from those above, as already listed:
SMILES | VDR inhibitor
COc1ccc(N2CCN(CCNC(=O)c3ccc4c(c3)[nH]c(=S)n3c5ccccc5nc43)CC2)cc1 | -23%
OCc1ccnc2oc3ccccc3c12 | 4%
Cn1ccs/c1=N\S(=O)(=O)c1ccc(F)cc1 | 0%
COc1ccc(OC)c(NC(=O)COC(=O)C2CCC2)c1 | -9%
CCOC(=O)c1c(NC(=O)COc2c(C)cc(Cl)cc2Cl)sc2c1CCCC2 | -8%
COc1ccc(CCNC(=O)C2CCC(=O)N(CC3CCCCC3)C2)cc1 (centres undefined) | -7%

(listing goes on)
SMILES | VDR inhibitor
OC(CCN1CCOCC1)c1ccccc1 (centres undefined) | -6%
CC(C)CN(Cc1c(O)ccc2c(=O)c(-c3ccccc3)coc12)CC(C)C | 7%
O=C(CCc1nc(-c2ccccc2F)no1)NC1CCN(Cc2ccccc2)CC1 | 8%
CCN(CC)c1ccc(C2C(C(=O)Nc3ccccc3C)=C(C)Nc3ncnn32)cc1 (centres undefined) | 22%
CCc1ccc(S(=O)(=O)N2CCCC(N3CCN(c4ccc(OC)cc4)CC3)C2)cc1 (centres undefined) | -3%
O=C(CCc1nc2sc3c(c2c(=O)[nH]1)CCCC3)Nc1cccc(Cl)c1 | -15%
CCc1ccc(OCc2ccccc2C(=O)Nc2ccc3nc(C)cc(N)c3c2)cc1 | 44%[activator]
COCCNC(=O)Cn1cnc2sc(C)c(S(=O)(=O)N3CCN(c4ccccc4OC)CC3)c2c1=O | 8%&-11%
CCN(CC)C(=O)c1cccc(NC(=O)c2ccccc2OCc2c(C)noc2C)c1 | 13%
CCN(CC)S(=O)(=O)c1ccc(N2CCOCC2)c(NC(=O)c2c3c(nc4ccccc24)CCC3)c1 | -4%
Cc1cc(C)c(C)c(S(=O)(=O)Nc2ccc(C(N)=O)cc2)c1C | -15%
CCOc1ccccc1NC(=O)CSc1nc2c(oc3ccccc32)c(=O)n1Cc1ccco1 | -9%
CC(=O)c1ccc(NC(=O)c2ccc(-n3cnnn3)cc2)cc1 | 4%
CN(c1nc2ccccc2[nH]c1=O)C1CCCCC1 | -7%
CCOCCCn1c(=N)c(C(=O)NCC2CCCO2)cc2c(=O)n3cc(C)ccc3nc21 (centres undefined) | 2%

The closing four entries of the part before open the next one:
SMILES | VDR inhibitor
CCOc1ccccc1NC(=O)CSc1nc2c(oc3ccccc32)c(=O)n1Cc1ccco1 | -9%
CC(=O)c1ccc(NC(=O)c2ccc(-n3cnnn3)cc2)cc1 | 4%
CN(c1nc2ccccc2[nH]c1=O)C1CCCCC1 | -7%
CCOCCCn1c(=N)c(C(=O)NCC2CCCO2)cc2c(=O)n3cc(C)ccc3nc21 (centres undefined) | 2%
Cc1nc(SCC(=O)N(CC(C)C)C2CCS(=O)(=O)C2)c2c(C)c(C)sc2n1 (centres undefined) | -7%
COc1cc(OC)nc(NC(=O)COC(=O)c2cccc(Cl)c2)n1 | 3%
Cc1cccc(-c2noc(CNC(=O)c3ccc(C)cc3C)n2)c1 | -4%
Cc1coc2c1C(=O)C(=O)c1c-2ccc2c(C)cccc12 | ?
Cc1cc(C(=O)OCC(=O)Nc2ccccc2[N+](=O)[O-])c2ccccc2n1 | -18%
CCn1cc(C(=O)NCCCOC(C)C)c(=O)c2cc(S(=O)(=O)N3CCC(C)CC3)ccc21 | -17%
COC(=O)CCCC1=CC2=CC(=O)C(C)(OC(=O)c3cccs3)C(=O)C2=CN1CCc1c[nH]c2ccccc12 (centres undefined) | 15%
Cc1ccc(Nc2nnc(SC/C(O)=C(\C#N)c3nc4ccccc4[nH]3)s2)c(C)c1 | -12%
O=C(NCCCN1CCCC1=O)C1CCCO1 (centres undefined) | 11%
COc1cc2c(cc1NC(=O)CSc1cccc[n+]1[O-])oc1ccccc12 | -14%
O=C(O)C1C2C=CC(C2)C1C(=O)NCc1cccs1 (centres undefined) | -14%
COc1cc(CN(C(=O)c2ccccc2Br)c2ccccn2)cc(OC)c1OC | 7%
CN(C)S(=O)(=O)N(CC(=O)Nc1ccc(S(=O)(=O)N2CCCC2)cc1)c1ccccc1 | -2%
COc1cccc(OC)c1C(=O)Nc1cccc(-c2nc3cc(C)cc(C)c3o2)c1 | -17%
CCOC(=O)C1CCCN(S(=O)(=O)c2cc(-c3cc(C)no3)ccc2OC)C1 (centres undefined) | 8%
COC(=O)CNC(c1ccccc1)c1cc(C)ccc1NC(=O)c1cccc(Cl)c1 (centres undefined) | -5%
COc1ccc2ccccc2c1/C=N\NC(=O)c1cccnc1 | 7%
CCOc1ccc(-c2nnc3sc(COc4ccc(Cl)cc4)nn23)cc1 | -5%
N#CCSc1nc2scc(-c3cccs3)c2c(=O)n1CCc1ccccc1 | 18%
Cc1ccc(CC2SC(=O)NC2=O)cc1Cl (centres undefined) | 6%
Cc1noc(C)c1S(=O)(=O)N(C)C[C@H]1Oc2ccc(NC(=O)CCC(F)(F)F)cc2C(=O)N([C@H](C)CO)C[C@@H]1C | 28%
O=C(O)CCCNC(=O)C(c1ccccc1)c1ccccc1 | -10%&-1%
O=C(NCc1nnc(SCc2ccc(F)cc2)n1-c1ccc(F)cc1)C12CC3CC(CC(C3)C1)C2 | -25%
CCOCCCNC(=O)C(NC(=O)c1cnccn1)c1ccc(OC)cc1 (centres undefined) | -20%
O=C(/C=C/c1ccccc1)Oc1cccc(C(=S)N2CCOCC2)c1 | -7%
O=C(NCc1ccco1)C1CC(c2ccc(F)cc2)=NO1 (centres undefined) | 4%
O=C(NCCN1CCCC1)C(c1ccccc1)c1ccccc1 | -7%
Cc1nc2ccn(Cc3ccccc3)c(=O)c2cc1C(=O)N1CCN(c2ccccc2F)CC1 | 10%
CC(=O)Nc1c2c(nn1-c1cccc(Cl)c1)CS(=O)C2 (centres undefined) | 20%
COC(=O)c1oc2ccc(Cl)cc2c1-n1cccc1 | -5%

Arranged by length of the SMILES (highest first): part of the list above.
SMILES | VDR inhibitor
Cc1noc(C)c1S(=O)(=O)N(C)C[C@H]1Oc2ccc(NC(=O)CCC(F)(F)F)cc2C(=O)N([C@H](C)CO)C[C@@H]1C | 28%
COC(=O)CNC(c1ccccc1)c1cc(C)ccc1NC(=O)c1cccc(Cl)c1 (centres undefined) | -5%
COc1ccc2ccccc2c1/C=N\NC(=O)c1cccnc1 | 7%

(further entries)
SMILES | VDR inhibitor
COc1ccc(S(=O)(=O)N2CCN(C(=S)Nc3ccc(S(N)(=O)=O)cc3)CC2)cc1 | 5%
Nc1nc(CN2CCN(c3ccccn3)CC2)nc(Nc2ccc(F)cc2)n1 | 8%
CCOc1ccc(C(N)=O)cc1OC | -9%
Cc1c(C)c2cc(Cl)c(OCC(=O)NCCCn3ccnc3)cc2oc1=O | 1%
O=S(=O)(NCc1c(Cl)cccc1Oc1ccccc1)c1ccc(F)cc1 | 1%
CN1C(=O)c2ccc(C(=O)NCc3ccco3)cc2C1=O | 26%
COc1ccc(N2CCN(CCCNS(=O)(=O)c3ccc4c(c3)oc(=O)n4C)CC2)cc1 | -18%
COc1ccc(N(Cc2ccccc2)C(=O)c2ccccc2[N+](=O)[O-])cc1 | 9%
COC(=O)C1=CN(c2ccc(F)cc2)C=C(C(=O)OC)C1c1ccc([N+](=O)[O-])cc1 | 14%
Cc1ccc(-n2ncc3c(N4CCC(C(N)=O)CC4)ncnc32)cc1 | 9%
CCCCn1c(N)c(N(CC(C)C)C(=O)CN2C(=O)NC3(CC(C)CC(C)(C)C3)C2=O)c(=O)[nH]c1=O (centres undefined) | -11%
CCC(C)(C)NC(=O)C(c1ccco1)N(C(=O)CNC(=O)c1cccs1)c1cccnc1 (centres undefined) | 10%
COc1cccc(C(=O)NC(C)CCc2ccccc2)c1 (centres undefined) | -5%
O=C(CCCN1C(=O)/C(=C\c2ccccc2)SC1=S)Nc1ccc(O)cc1 | 14%
COCCN(C(=O)Cn1c(C(F)(F)F)nc2ccccc21)c1c(N)n(Cc2ccccc2)c(=O)[nH]c1=O | 2%
CCCOc1ccc(C2(C(=O)O)CCCC2)cc1 | -10%
CCOC(=O)c1cc2cc(OCc3ccccc3)ccc2nc1C | ?
CC(C)C[C@@H](CC(=O)N[C@@H](CCC(=O)O)CC(=O)O)NC(=O)[C@@H]1CNCC[C@H]1NC(=O)C[C@H](CCCN)NC(=O)C[C@H](CO)NC(=O)[C@@H]1CNCC[C@H]1N | -2%
Clc1ccc(CNc2ncnc3nc[nH]c23)cc1 | -12%
N#CCC(=O)Nc1ccc(C(=O)OC(C(=O)Nc2cc(C(F)(F)F)ccc2Cl)c2ccccc2)cc1 (centres undefined) | 3%
CC(C)C[C@H](NC(=O)[C@@H]1CCCN1C(=O)[C@H](CO)NC(=O)[C@H](Cc1ccccc1)NC(=O)CNC(=O)[C@@H]1CCCN1C(=O)[C@@H]1CCCN1C(=O)[C@@H](N)CCCN=C(N)N)C(=O)O | 12%
C/C(=C\c1ccco1)C1C(C#N)=C(N)OC2=C1C(=O)CC(C)(C)C2 (centres undefined) | -5%
CC(=O)N1CCc2cc(S(=O)(=O)NC(Cc3ccccc3)C(=O)Nc3cc(C)cc(C)c3)ccc21 (centres undefined) | -10%
COc1ccc(C(C)(C)C)cc1S(=O)(=O)NCC1CCCO1 (centres undefined) | -20%
O=C(CSc1cccc2cccnc12)N/N=C/c1cccc(O)c1 | 12%
Cc1ccc(S(=O)(=O)N(CC(=O)N2CCOCC2)c2ccc(C(C)C)cc2)cc1 | 7%
COc1cc(CNc2ncn[nH]2)ccc1OCc1ccccc1C | -2%
O=C(CCN1C(=O)C2C3C=CC(C3)C2C1=O)N1CCN(c2ccc(F)cc2)CC1 (centres undefined) | 12%
O=C(CSc1ccc(Br)cc1)NCC1CCCO1 (centres undefined) | 7%
CN1[C@@H]2CCC[C@H]1CC(NC(=O)c1nn(C)c3ccccc13)C2 (some centres undefined) | -9%
CC(=O)N1c2ccc(S(=O)(=O)N3CCCC(C(=O)N4CCC(C)CC4)C3)cc2CC1C (centres undefined) | -2%
COc1ccc(S(=O)(=O)N(C)CC(=O)NCc2ccco2)cc1OC | 9%
COc1ccc(C2CC(c3ccccc3)n3nnnc3N2)cc1 (centres undefined) | 4%
CC(=O)NC1CC2CCCC(C1)N2C(=O)Nc1ccccc1C (centres undefined) | -6%
Fc1ccc(Oc2nccc(-c3ccc(Cl)cc3)n2)cc1 | -5%
COc1ccccc1N1CCN(C(=O)CCNS(=O)(=O)c2ccc(Br)s2)CC1 | 3%
Cc1cc(C)n(-c2ccc(C(=O)OCc3ccccc3)cc2)n1 | 16%
CC(=O)NC(Cc1cnc[nH]1)C(=O)O (centres undefined) | -11%
O=C(O)CN(CCOCCOCCN(CC(=O)O)CC(=O)O)CC(=O)O | 3%&-2%
CCn1nc(CC(C)C)cc1C(=O)N1CCCC(Nc2ccc(OC)cc2)C1 (centres undefined) | -30%
COc1ccc(S(=O)(=O)N(C)c2ccc(C(=O)Nc3ccccc3C(=O)N3CCOCC3)cc2)cc1OC | -5%
